Mtb bLac sens – beta-lactam sensitization of Mtb H37Rv; 330,000 tested, 0.27% active; AID 434955; M. tuberculosis H37Rv growth with meropenem, percent inhibition; hits of this screen are not shown here; inhibition, % at 25 µM;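 active = about 74% or more and at least 40 points above the plate without the antibiotic, then above 30% in a dose series; inconclusive = first-round hits that could not be retested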;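 note: growth measured after seven days incubation then overnight dye step; 0% = bacteria only wells and 100% = bacteria with antibiotic; twin plates without the antibiotic show which effects depend on it; some results filed as inactive read as strong as hits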
* marks the source's active call; other numbers are inactive results; ? = inconclusive.

The opening 7 records, ahead of the listing:
canonical_smiles | Mtb bLac sens
C[C@H](CO)N1C[C@H](C)[C@@H](CN(C)C(=O)Nc2ccc3c(c2)OCO3)Oc2c(NC(=O)Nc3ccc4c(c3)OCO4)cccc2C1=O | -2
O=[N+]([O-])c1ccccc1CNCCO | -4
COC1=C(OC)[C@]23CCc4ccc(OC)c(OC)c4[C@]2(CCN3C)CC1=O | 6
C=CC[C@H](CC(=O)N(CCO)Cc1ccccc1)C(=O)N[C@H](COC(=O)[C@@H](CC=C)Cc1ccc(F)cc1)Cc1ccccc1 | 3
CN(CC(=O)Nc1ccc(F)cc1)C(=O)Cn1cnc2ccc(Cl)cc2c1=O | -3
Cc1cc(C(=O)COc2cccc([N+](=O)[O-])c2)c(C)n1C1CC1 | 7
O=C(COC(=O)CNC(=O)C1CCCCC1)Nc1cc(C(F)(F)F)ccc1Cl | 10

The listing, previewed entries included:
canonical_smiles | Mtb bLac sens
C[C@H](CO)N1C[C@H](C)[C@@H](CN(C)C(=O)Nc2ccc3c(c2)OCO3)Oc2c(NC(=O)Nc3ccc4c(c3)OCO4)cccc2C1=O | -2
O=[N+]([O-])c1ccccc1CNCCO | -4
COC1=C(OC)[C@]23CCc4ccc(OC)c(OC)c4[C@]2(CCN3C)CC1=O | 6
C=CC[C@H](CC(=O)N(CCO)Cc1ccccc1)C(=O)N[C@H](COC(=O)[C@@H](CC=C)Cc1ccc(F)cc1)Cc1ccccc1 | 3
CN(CC(=O)Nc1ccc(F)cc1)C(=O)Cn1cnc2ccc(Cl)cc2c1=O | -3
Cc1cc(C(=O)COc2cccc([N+](=O)[O-])c2)c(C)n1C1CC1 | 7
O=C(COC(=O)CNC(=O)C1CCCCC1)Nc1cc(C(F)(F)F)ccc1Cl | 10
C[C@H](CO)N1C[C@H](C)[C@@H](CN(C)S(C)(=O)=O)Oc2ccc(NC(=O)C3CCCCC3)cc2C1=O | 4
COc1ccc(S(N)(=O)=O)cc1C(=O)NCC(C)(C)N1CCCCC1 | 1
O=C(COC(=O)CNC(=O)c1ccccc1)NC1CCCCC1 | -3
COc1ccccc1CNC(=O)CN(C)S(=O)(=O)c1ccc(Br)s1 | -1
CCNc1nc(NCC)n2c(SCC(=O)Nc3ccc(C)cc3Br)nnc2n1 | 2
CN(C)CCN[C@H]1CCC2C3CC=C4C[C@@H](O)CC[C@]4(C)C3CC[C@@]21C (stereo partly drawn) | 3
CCOc1ncccc1C(=O)OCC(=O)NCCCc1ccccc1 | -9
O=C1C=C(c2ccc(Oc3ccccc3)cc2)C[C@@H](c2ccc(F)cc2)C1 | 42
O=C(Cc1cccc([N+](=O)[O-])c1)Nc1ccc(C(=O)N2CCOCC2)cc1 | -3
CC(C)[C@H](NC(=O)c1ccccc1F)C(=O)Nc1ccc2c(c1)OCO2 | -1
COc1ccc(C(CNC(=O)c2cccc(S(=O)(=O)N3CCOCC3)c2)N2CCOCC2)cc1 (stereo not drawn) | -8
CSCCC(NC(=O)COc1ccccc1)C(=O)N(C)Cc1ccc(SC)cc1 (stereo not drawn) | -1
CCC(Cc1ccccc1)NC(=O)C1CCCCC1 (stereo not drawn) | -7
CCN(CC(=O)Nc1cc(C)on1)CC(=O)Nc1ccccc1C(F)(F)F | 0
C#CCOCCOCCOCCNc1nc(N2CCN(C(=O)[C@H]([C@@H](C)CC)n3cc(CCCCN)nn3)CC2)nc(N2CCN(C(=O)[C@H](CCCCN)n3cc(CC(C)O)nn3)CC2)n1 (stereo partly drawn) | -8
CC1CC(C)CN(S(=O)(=O)c2cccc(C(=O)N3CCN(c4ccc(F)cc4)CC3)c2)C1 (stereo not drawn) | 0
O=C(CSc1nc2ccccc2c2c1CCCC2)N1CCOCC1 | 1
CCCCCOc1ccc(C(=O)CCC(=O)NC(C)c2ccc(S(N)(=O)=O)cc2)cc1 (stereo not drawn) | 6
O=C(NC(Cc1ccccc1)C(=O)O)/C(=C/c1cccc(Br)c1)NC(=O)c1ccco1 (stereo not drawn) | -7
O=C(c1ccc(Br)o1)N1CC=C(c2ccccc2)CC1 | 7
CC(C)N(C(=S)Nc1ccc(S(=O)(=O)N2CCOCC2)cc1)c1ccccc1 | 0
Cc1ccc(S(=O)(=O)N2CCN(C(=O)[C@H](Cc3ccccc3)NC(=O)c3ccco3)CC2)cc1C | -9
CC1CCCC(NC(=O)Cn2cc(Br)ccc2=O)C1C (stereo not drawn) | -5
COc1ccccc1N1CC(C(=O)Nc2ccc(N3CCOCC3)cc2)CC1=O (stereo not drawn) | 2
CCc1ccccc1OCC(=O)Nc1cccc(S(=O)(=O)NC2=NCCC2)c1 | -7
O=[N+]([O-])c1cccc(-n2nncc2-c2ccccc2)c1 | -14
CCCCn1c(SCC(=O)NC(=O)Cc2ccccc2)nc2ccccc2c1=O | 0
CCN(CC(=O)NC1CCS(=O)(=O)C1)C(=O)c1ccc(OC)c([N+](=O)[O-])c1 (stereo not drawn) | -1
O=C(COC(=O)COc1ccccc1[N+](=O)[O-])NC1CCCCC1 | 1
Cc1cc(C)cc(C(=O)OCC(=O)NCc2ccco2)c1 | 12
COc1ccc(NC(=O)C2CCN(C(=O)Nc3ccccc3)CC2)cc1S(=O)(=O)N(C)C | -5
CCc1ccc([C@@H]2CC=C(C(=O)O)[C@H](c3ccccc3F)N2S(=O)(=O)c2ccc(C)cc2)cc1 | -3
O=C(COC(=O)Cc1ccc(S(=O)(=O)N2CCOCC2)s1)Nc1ccccc1 | 4
COc1cccc(C(=O)NC2CCCc3ccccc32)c1OC (stereo not drawn) | 4
Cc1ccc(COC(=O)CN2C(=O)NC3(CCCC3)C2=O)cc1 | 3
CCOC(=O)[C@H]1[C@H]2COc3ccc(C)cc3[C@@H]2N2C(=O)CN(Cc3ccc(C)cc3)C(=O)[C@@]12C | 6
Cc1ccc(CN(C)C(=O)c2cccc(S(=O)(=O)N3CCCC3)c2)o1 | -1
COc1ccc(CN(C)C(=O)Cn2cnc3c(OCc4ccccc4)ncnc32)cc1OC | -8
CCOC(=O)Nc1ccc(N2CCOCC2)c(S(=O)(=O)Nc2ccc(Cl)cc2)c1 | -1
CC(=O)c1cccc(OC(=O)c2cc(S(=O)(=O)N3CCOCC3)ccc2N2CCCC2)c1 | -2
Nc1cc(Cl)cc(C(=O)O)c1Cl | -12
CCOc1ccccc1N1CCN(CC(=O)Nc2ccccc2C(=O)NC2CC2)CC1 | -1
CCOc1ccc(C(=O)Nc2ccc(S(=O)(=O)N3C[C@@H]4C[C@@H](C3)c3cccc(=O)n3C4)cc2)cc1 | 3
Cc1ccc(CNC(=O)COC(=O)COc2ccc(C#N)cc2)cc1 | -5
COc1ccc(C(=O)NCC(C)(C)CNC(=O)c2ccc(OC)c(OC)c2)cc1OC | -4
Cc1cc(C)n(-c2ccc(C(=O)N3CCN(c4ccccn4)CC3)cc2)n1 | -14
Cc1ccc(S(=O)(=O)N2CCN(C(=O)COC(=O)Cc3ccc(Cl)cc3)CC2)c(C)c1 | -1
CCOc1ccc(NC(=O)COC(=O)CN2CCCCCC2=O)cc1 | -6
CCOC(=O)N1CCN(c2ccc(S(=O)(=O)N3CCC(C)CC3)cc2[N+](=O)[O-])CC1 | 0
Cc1ccccc1-c1nnc(SCC(=O)c2c(N)n(C3CC3)c(=O)[nH]c2=O)o1 | -1
Cc1[nH]c2ccccc2c1C(=O)COC(=O)c1ccccc1O | -1
O=C(COC(=O)/C=C/c1ccccc1)NC1CC1 | 3
CC1CCC2(CC1)NC(=O)N(NC(=O)c1cccc(N(C)C)c1)C2=O (stereo not drawn) | -4

Next part (4 carried over from the part before).
canonical_smiles | Mtb bLac sens
Cc1ccccc1-c1nnc(SCC(=O)c2c(N)n(C3CC3)c(=O)[nH]c2=O)o1 | -1
Cc1[nH]c2ccccc2c1C(=O)COC(=O)c1ccccc1O | -1
O=C(COC(=O)/C=C/c1ccccc1)NC1CC1 | 3
CC1CCC2(CC1)NC(=O)N(NC(=O)c1cccc(N(C)C)c1)C2=O (stereo not drawn) | -4
C=CCn1c(SCC(=O)NCC2CCCO2)nnc1-c1ccncc1 (stereo not drawn) | -2
CCOC(=O)[C@H]1[C@H]2COc3cc(OC)ccc3[C@@H]2N2C(=O)CN(C)C(=O)[C@@]12C | -6
CSCCC(NC(=O)c1ccco1)C(=O)N1CCCC(C(F)(F)F)C1 (stereo not drawn) | -4
COc1ccccc1C(=O)Nc1cccc2cccnc12 | 71
Nn1c(-c2ccccc2)nc2cc(Cl)ccc2c1=O | -9
CN(C)c1ccc(-c2cc(O)c3ncccc3c2)cc1 | 100
CCOC(=O)C1CCCN(C(=O)COC(=O)c2cccs2)C1 (stereo not drawn) | -2
CCOC(=O)[C@H]1[C@H]2COc3ccc(C)cc3[C@@H]2N2C(=O)CN(Cc3ccco3)C(=O)[C@@]12C | -9
CCCCN(C(=O)c1cc2c(s1)CCC2)c1c(N)n(CC(C)C)c(=O)[nH]c1=O | -4
COC(=O)c1c(C)[nH]c(C(=O)C(C)OC(=O)C2CC2C)c1C (stereo not drawn) | 4
Cc1occc1C(=O)N1CCN(c2ccc(Cl)cc2)CC1 | ?
O=C(NCC(c1cccs1)N1CCOCC1)c1cn(-c2ccccc2)nc1-c1ccccc1 (stereo not drawn) | 29
CC(C)COc1ccc(C(=O)NNC(=O)CCC(=O)c2cccs2)cc1 | 2
C=CC[C@H](CC(=O)N(CCO)Cc1ccccc1)C(=O)N[C@H](COC(=O)[C@@H](CC=C)Cc1ccc(F)cc1)Cc1c[nH]c2ccccc12 | 2
O=C(CNC(=O)c1ccco1)NNC(=O)c1cccc(Cl)c1 | -5
CC(=O)Nc1ccc(NC(=O)c2ccc(COc3ccccc3)cc2)cc1 | 6
CCc1ccccc1NC(=O)CNC(=O)c1cc(C2CC2)nc2c1cnn2C(C)C | 3
COc1ccc(C2SCCN2S(=O)(=O)c2ccc(NC(C)=O)cc2)cc1OC (stereo not drawn) | -7
COc1cccc(NC(=O)COC(=O)CCC2CCCC2)c1 | 9
CON(C)S(=O)(=O)c1cccc(C(=O)N(CC(=O)Nc2ccccc2C(F)(F)F)Cc2ccco2)c1 | -6
C[C@H](NC(=O)c1ccco1)C(=O)Nc1cc(S(=O)(=O)N2CCCC2)ccc1OCC(F)(F)F | -4
Cc1ccc(S(=O)(=O)NCCC(=O)N2CCN(c3ccccc3)CC2)cc1C | -13
OCCc1c[nH]c2ccccc12 | -4
CCCCn1c(N)c(N(CCC(C)C)C(=O)COC(=O)c2sccc2C)c(=O)[nH]c1=O | 2
OCCCCO | -4
CCn1c(CCC(=O)O)nc2cc(S(=O)(=O)N3CCOCC3)ccc21 | -9
CSc1ncccc1C(=O)OCC(=O)NCc1ccccc1 | -5
Cc1ccc(NC(=O)COC(=O)CCC2CCCC2)cc1S(=O)(=O)N1CCOCC1 | 5
Cc1cccc(C(=O)NCC(=O)N2CCCCCCC2)c1 | 0
c1ccc(-c2cc3ccccc3cn2)cc1 | 0

Cc1cc(OCC(=O)Nc2ncn[nH]2)ccc1Cl
- Mtb bLac sens: -5
CCc1nnc(NC(=O)c2ccc(-c3ccc(C(C)=O)cc3)o2)s1
- Mtb bLac sens: 30
Cc1nn(C)c(C)c1NC(=O)COc1ccc(Cl)cc1Br
- Mtb bLac sens: -10
COc1ccc(NC(=O)CN(C)C(=O)Cc2c[nH]c3ccccc23)cc1
- Mtb bLac sens: -1
Cc1ccc(NC(=O)CN(C)C(=O)c2cccc(S(=O)(=O)N3CCCC3)c2)cc1
- Mtb bLac sens: -3
Cc1cc(NC(=O)CN2C(=O)NC(CC(C)C)C2=O)ccc1Br (stereo not drawn)
- Mtb bLac sens: -3
NC(=O)C1CCN(c2nc(-c3cccs3)cs2)CC1
- Mtb bLac sens: 70
Cc1ccc(C(=O)N2CCCC(C(F)(F)F)C2)cc1S(=O)(=O)N1CCOCC1 (stereo not drawn)
- Mtb bLac sens: -5
O=C(CN1C(=O)C(=O)N(Cc2ccco2)C1=O)Nc1ccccc1
- Mtb bLac sens: -2
O=S(=O)(O)c1cc(O)ccc1O
- Mtb bLac sens: 9
CC(Sc1nnc(C2CC2)n1C1CC1)C(=O)c1ccc(F)cc1 (stereo not drawn)
- Mtb bLac sens: 0
O=C(CN1C(=O)NC(Cc2c[nH]c3ccccc23)C1=O)Nc1ccc(F)cc1F (stereo not drawn)
- Mtb bLac sens: -6
Cc1c(Cl)cccc1NC(=O)CNC(=O)c1cn(-c2ccccc2)nc1-c1cccnc1
- Mtb bLac sens: 2
Cc1ccc(Cl)c(NC(=O)COC(=O)c2cc[n+]([O-])cc2)c1Cl
- Mtb bLac sens: -7
COc1ccc(OC)c(/C=C/c2nc3ccccc3[nH]c2=O)c1
- Mtb bLac sens: 4
O=C(CN1CCN(c2ccccc2F)CC1)NC(=O)NC1CCCCC1
- Mtb bLac sens: -2
C#CCOCCOCCOCCNc1nc(N2CCN(C(=O)CCCCCCCCCCNC(=O)Cn3cc(CCCCCN)nn3)CC2)nc(N2CCN(C(=O)CCCCCCCCCCNC(=O)[C@@H](CCSC)n3cc(CCO)nn3)CC2)n1
- Mtb bLac sens: 1
CC1(C)CC[C@]2(C(=O)O[C@@H]3O[C@H](CO)[C@@H](O)[C@H](O)[C@H]3O)CC[C@]3(C)C(=CCC4[C@@]5(C)CC[C@H](O[C@@H]6O[C@H](C(=O)O)[C@@H](O[C@H]7OC[C@@H](O)[C@@H](O)[C@@H]7O)[C@H](O)[C@H]6O)C(C)(C)C5CC[C@]43C)[C@@H]2C1 (stereo partly drawn)
- Mtb bLac sens: 6
COC(=O)C1=C(c2ccc(OC)c(OC)c2)C[C@@H]2CC[C@H]1N2C(=O)NCc1cc(C)oc1C(F)(F)F
- Mtb bLac sens: -1
CC(C)(C)[C@H]1COC(=O)[C@@H](Cc2ccc(F)cc2)CC/C=C/C[C@@H](CC(=O)N[C@@H](CO)Cc2ccccc2)C(=O)N1
- Mtb bLac sens: 0

Screens as filed in PubChem BioAssay.

Not all compounds are listed (hit frequency here may not be typical).
